Assay outcomes from PubChem BioAssay.
TRPML1 ag – human mucolipin-1 channel agonism | Q9GZU1 | TRPML1-expressing cells, Ca2+ dye fluorescence, FDSS; host cell line not named in the record; reference of the full effect not given here | activation, % (no concentration beside the values) | 0.12% of 410,000 active | AID 624414; in the data active = activation above about 50%; inconclusive = about 30% to 50%; inactive = below about 30%; note: 0% is about no effect; the text of the record puts the active cut at 80%
Target sequence (Q9GZU1 whole entry, looked up): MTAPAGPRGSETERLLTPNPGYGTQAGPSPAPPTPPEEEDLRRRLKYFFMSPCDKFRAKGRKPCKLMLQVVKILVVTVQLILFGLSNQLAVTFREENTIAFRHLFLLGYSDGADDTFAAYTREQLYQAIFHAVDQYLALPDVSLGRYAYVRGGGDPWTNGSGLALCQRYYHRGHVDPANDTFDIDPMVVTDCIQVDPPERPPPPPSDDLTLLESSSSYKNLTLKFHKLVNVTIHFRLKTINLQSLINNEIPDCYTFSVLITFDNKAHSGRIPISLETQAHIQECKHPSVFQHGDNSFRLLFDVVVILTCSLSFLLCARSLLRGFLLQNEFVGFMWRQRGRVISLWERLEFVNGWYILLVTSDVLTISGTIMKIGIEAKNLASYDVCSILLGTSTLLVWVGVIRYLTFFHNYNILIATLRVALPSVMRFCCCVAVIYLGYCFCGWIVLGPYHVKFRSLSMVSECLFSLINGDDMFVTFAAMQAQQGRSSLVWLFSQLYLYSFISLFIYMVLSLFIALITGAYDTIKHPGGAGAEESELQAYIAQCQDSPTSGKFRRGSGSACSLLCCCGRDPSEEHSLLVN
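In this qHTS format, compounds were pin-transferred onto Ca8-dye-loaded TRPML1-DL cells induced with Tet overnight, and intracellular Ca2+ fluorescence was recorded kinetically for 110 s after a 10 s baseline. A subsequent 4uM final 54-4 (EC80) addition followed by a second 110 s read served as the antagonist phase.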
TRPV1 PAM – enhances activation of the human vanilloid receptor TRPV1; Q8NER1; TRPV1-expressing cells, Fluo-8 calcium influx, capsaicin EC20 potentiation; host cell line not named in the record; control for the full effect not named in the record; potentiation, % at 8.33 µM; 0.02% of 320,000 active; active means potentiation above 80%; inconclusive means 30% to 80%; inactive means below 30%; note: 0% is about no effect
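TRPV1-expressing cells were cultured overnight at 35.5C and loaded with Fluo-8 calcium dye for 40 to 90 min at room temperature. After a 10 s baseline, compound was added and calcium influx was read kinetically for 3 min (ex 480/em 520 nm).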
PINK1 modulator – PINK1 expression modulation. PINK1 immunofluorescence, high-content cytometry, 24 h. 0.2% of 410,000 active. Potency, µM (titrated, usually from 76.6 µM), inactives show top-dose activation (PINK1 increase), usual class: activators; active = well fitted activation curve with a large enough effect; inconclusive = small, poorly fitted or top-dose-only effect; inactive = flat fitted curve, though single readings scatter; cell line not stated here;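 note: potency is the fitted concentration of half-maximal effect; % of control where 0% means no effect; nearly all actives have a fitted effect of over 65% in size; a mitochondrial uncoupler was the plate control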
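PINK1 protein level read as immunofluorescence by microplate cytometer in a fixed, stained stable cell line after 24 h exposure to five compound concentrations, with CCCP as control.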
ClpP mod – qHTS Assay for Activators of ClpP. ATP-dependent Clp protease proteolytic subunit (Bacillus subtilis (strain 168)), P80244. purified B. subtilis ClpP, FRET peptide cleavage, 20 min. Potency, µM (doses to about 57.5 µM), for the others: at the highest dose activity change, negative = active. 1.9% of 340,000 active. AID 651965, 2013; active = well fitted falling curve with a large enough effect; inconclusive = small, poorly fitted or top-dose-only effect; inactive = no such curve, though single readings can be large or run the other way; note: potency is the fitted concentration of half-maximal effect; the source files actives as falling curves though it sought activators and does not explain the sign; nearly all actives have a fitted effect of over 65% in size; many hits overshoot -100%
Target sequence (P80244 whole entry, looked up): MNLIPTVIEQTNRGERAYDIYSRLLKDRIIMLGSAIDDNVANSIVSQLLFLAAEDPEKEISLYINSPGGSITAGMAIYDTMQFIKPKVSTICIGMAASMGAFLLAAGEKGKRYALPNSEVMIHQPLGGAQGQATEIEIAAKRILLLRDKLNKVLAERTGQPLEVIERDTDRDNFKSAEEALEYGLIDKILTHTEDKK
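FRET quenching reversal measured ClpP activation: 10 microg/mL B. subtilis ClpP at pH 8 with the FRET-FV decapeptide, read at 430 nm after 320 nm excitation. The 20-min minus 0-min signal was scaled between DMSO/no-enzyme wells and ADEP (5.8 microM final).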
Sfp inh – blocks B. subtilis Sfp PPTase activity. Biochemical Sfp PPTase activity, qHTS. 3.5% of 310,000 active. AID 1490. Q9F4F7. Potency, µM, inactives show max response, negative = inhibition, actives largely listed as inhibitors; active = well fitted inhibition curve with a large enough effect; inconclusive = small, poorly fitted or top-dose-only effect, or another doubt; inactive = no such curve, though single readings can be large or run the other way;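 note: the enzyme is Sfp with the accession as filed and its product quenches rhodamine fluorescence; potency is the fitted concentration of half-maximal effect; 0% = enzyme reaction without inhibitor and -100% = no enzyme wells; top concentration of the series not given in the record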
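Buffer: 50 mM Hepes-Na pH 7.6, 10 mM MgCl2, 0.01% Nonidet P-40, 0.01% BSA. Enzyme 15 nM, pre-exposed to compound 15 min; substrates then added and fluorescence change tracked over 30 min.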
Menin-MLL FL inh – inhibitors of human menin-MLL interaction, wild-type MLL peptide; Fluorescence polarization, fluorescein-MLL peptide displacement from menin; FP activity change, % at 61.4 µM; 290,000 tested, under 10 active; inconclusive = falling polarisation curve, or a change in total fluorescence; inactive = total fluorescence flat and polarisation flat or rising; no compound was filed as active; the % refers to the polarisation; negative = inhibition;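 note: % of control where 0% means no effect; inhibitors lower the polarisation; unlabelled MLL peptide was the positive control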
TRPML1 inh – blocks the human TRPML1 channel. Q9GZU1. TRPML1-inducible cells, Ca2+ dye fluorescence, FDSS; stronger effect = lower value; inhibition of EC80 agonist-evoked calcium signal. activity change, negative = inhibition, % (test concentration not listed). 0.02% of 390,000 active; in the data active means activity change below about -50%; inconclusive means about -30% to -50%; inactive means above about -30%;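 note: stimulus is agonist 54-4 at its EC80 concentration; % is set by controls: 0 for no effect and ±100 for the full control effect; compound concentration not given in the record; the text of the record puts the active cut at -80%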
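Calcium fluorescence in TRPML1-DL cells induced overnight with Tet: a 110 s read after compound pin addition, then a 110 s antagonist read after challenge with 54-4 at 4 uM final (EC80).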
* = called active by the depositor; ? = inconclusive; . = no result given; [ ] = remark or other dose.

SMILES	TRPML1 ag	TRPV1 PAM	PINK1 modulator	ClpP mod	Sfp inh	Menin-MLL FL inh	TRPML1 inh
CCc1ccc(NC(=O)CC2S/C(=N/N=C3CCCCCC3)NC2=O)cc1 (configuration not stated)	2.9	-5.7	-1.2%	-1.9%	19.9%	0.6	-3.5
O=C1CC(c2ccc(S(=O)(=O)NCc3ccncc3)cc2)CN1 (configuration not stated)	0.3	.	1.9%	1.6%	29.6%	5.2	19.3
COc1ccccc1CNC(=O)C1CCN(S(=O)(=O)c2c(C)noc2/C=C/c2cccs2)CC1	1.6	.	2.9%	-10.9%	.	.	14.6
CC(Cc1ccccc1)Nc1ncnc2c1ncn2C1OC(CO)C(O)C1O (configuration not stated)	-0.7	.	0.1%	-0.2%	.	.	-9.1
CCCNC(=O)c1c[nH]c2ccc(S(=O)(=O)N(C)c3ccc(OCC)cc3)cc2c1=O	0.4	-8.1	8.6%	-11.9%	3.4%	0.6	16.5
CCC(C)NC(=O)c1nc2c(nnn2Cc2ccccc2Cl)c(=O)[nH]1 (configuration not stated)	0.5	-0.7	3.3%	.	-17.4%	-0.1	-6.8
CCOc1ccc2c(c1)c1nc3ccccc3nc1n2C	-0.2	-25.1	9.0%	-14.3%	0.1%	?	-2.2
CCCN(CCC)CCCNC(=O)CC1Nc2ccccc2NC1=O (configuration not stated)	0.0	10.2	-0.5%	?	16.4%	2.9	-17.0
CSc1ccccc1-c1n[nH]c(=S)o1	0.4	16.2	0.5%	.	-21.2%	3.4	8.5
CCOc1ccc(N=Nc2c(=O)[nH]n3c(=O)cc(C)[nH]c23)cc1	-1.5	16.2	-0.9%	-1.6%	2.2%	0.2	6.3
CC(C)(C)c1nc2c(Br)cc(Br)cc2c(=O)o1	-0.2	3.0	9.4%	2.3%	-2.7%	-0.4	31.0
CC(C)CC(=O)Nc1nnn(C)n1	-0.5	-0.9	22.0%	-0.6%	3.1%	3.7	-12.2
CCOC(=O)c1sc2nc(C)nc(Nc3ccc(OC)c(OC)c3)c2c1C	-0.9	-1.0	1.8%	.	4.1%	-0.7	-0.1
COc1ccccc1N/C(N)=N/c1nc(CSc2ccc(C)cc2)cc(=O)[nH]1	2.9	7.6	-0.3%	-0.6%	7.4%	-1.4	10.9
O=C(O)CCc1c2ccc(=O)c(O)c-2oc2c(O)c(O)ccc12	1.7	.	-0.2%	-11.4%	.	.	.
COc1cc(OC)c(NS(=O)(=O)c2cc3[nH]c(=O)c(=O)[nH]c3cc2C)cc1Cl	-0.6	-12.2	1.2%	-5.2%	12.6%	-0.6	2.0
CCOC(=O)C1CCC(CN(Cc2ccccc2C)S(=O)(=O)c2ccc([N+](=O)[O-])cc2)CC1 (configuration not stated)	1.0	2.9	1.5%	-2.4%	3.4%	8.4	21.2
O=c1[nH]c(=S)[nH]c2sc3c(c12)CCCCCC3	0.4	-1.0	-0.4%	1.1%	-21.7%	1.8	1.3
COc1cccc(S(=O)(=O)NCc2ccc(C(=O)N3CCN(C)CC3)cc2)c1	0.4	12.5	-0.8%	-3.4%	9.1%	0.9	-11.6
Cc1ccc(C(=O)Nc2nc(=O)n(C(=O)c3ccccc3Cl)s2)cc1	0.4	4.0	0.2%	-1.6%	-14.4%	2.5	-4.3
CC(C)CC(=O)N(c1ccc(F)cc1)C1C=CS(=O)(=O)C1 (configuration not stated)	-0.2	-1.7	.	-1.9%	3.2%	0.9	19.2
COc1ccc(NC(=O)CSc2ncc(-c3ccc(Cl)cc3)[nH]2)cc1OC	3.2	.	-0.7%	-2.0%	.	.	3.2
CCc1cccc2c(C#N)cn(CC(=O)NCCOC)c12	-0.1	8.1	2.1%	-0.7%	13.0%	2.9	-8.9
Cn1nnc2cc(C(=O)NCCC3=CCCCC3)ccc21	0.0	-26.8	0.1%	0.7%	-11.1%	2.4	-6.2
O=C(Cn1c(=O)nc(-c2ccccc2)c2cc(Cl)ccc21)NCCc1ccc(Cl)cc1	-0.5	.	3.4%	17.1%	.	.	1.6

Carrying on.
SMILES	TRPML1 ag	TRPV1 PAM	PINK1 modulator	ClpP mod	Sfp inh	Menin-MLL FL inh	TRPML1 inh
CCC(=O)Nc1ccccc1Sc1ncnc2scc(-c3ccccc3)c12	-0.2	-3.1	-0.6%	6.7%	-9.8%	.	-16.2
CC(=O)NC1=NN(C(C)=O)C(c2cccs2)S1 (configuration not stated)	1.2	27.3	-1.2%	-3.5%	19.5%	0.7	-9.4
O=C(Nc1ccccn1)c1ccccc1	-0.6	.	-1.5%	.	.	.	24.3
CCOc1ccc(CNC(=O)C2CCCN(S(=O)(=O)N3CC(C)CC(C)C3)C2)cc1OC (configuration not stated)	0.9	5.1	-1.5%	1.9%	6.6%	2.2	1.5
Cc1oc(-c2ccc(Cl)cc2)nc1Cn1c(=O)cc(-c2ccccc2)c2c(C)nn(C)c21	1.8	.	0.6%	-21.4%	.	.	-26.6
CN1CCN(c2nc(-c3ccccc3)ncc2S(=O)(=O)c2ccccc2)CC1	-0.2	-13.5	-0.8%	-1.3%	-19.0%	-2.6	21.9
Cc1ccc(CSCC(=O)N2CCN(Cc3ccc4c(c3)OCO4)CC2)cc1	2.7	-18.4	-0.8%	1.0%	7.7%	-0.3	30.9
O=C(CN1C(=O)C2CC=CCC2C1=O)OCC(=O)c1ccc(Cl)c([N+](=O)[O-])c1 (configuration not stated)	-0.5	-9.0	-0.3%	-1.5%	0.3%	.	2.4
COCCNC(=O)CSc1nc2cc3c(cc2c(=O)n1CCCCCC(=O)NCCc1ccc(OC)c(OC)c1)OCO3	1.2	.	2.6%	0.2%	.	.	13.2
CCOc1ccc(C(C(=O)NCC2CCCO2)N(Cc2cccc(OC)c2)C(=O)c2snc(C(N)=O)c2N)cc1 (configuration not stated)	0.5	7.4	2.7%	.	-7.1%	7.5	32.9
CCN(CC)CCCCCC(=O)Nc1ccccc1C(=O)Nc1ccccc1	0.5	10.0	0.2%	-0.6%	0.9%	-1.3	9.0
FC(F)(F)c1cc(-c2cccs2)nc2cc(-c3cccs3)nn12	-0.7	-10.8	3.7%	17.7%	8.1%	-0.2	-6.7
O=C(NNC(=S)Nc1ccc(F)c(Cl)c1)C1CC1	-0.2	6.5	0.4%	-1.1%	23.2%	-1.3	-19.1
CC(=O)Nc1cccc(NC(=O)CSc2nc3c(c(=O)n(C)c(=O)n3C)n2C)c1	-0.2	5.5	0.1%	.	5.8%	-5.9	9.6
CN(CC(=O)Nc1c(Cl)cccc1Cl)C(=O)C1CCN(C(=O)Nc2ccccc2)CC1	-0.3	8.2	-1.3%	-6.1%	.	.	-6.4
CC(C)(C)c1nnc2sc(SCC(=O)c3cccs3)nn2c1=O	0.0	-8.2	5.9%	1.5%	-0.7%	5.1	-7.0
O=C1CCCN1c1nccs1	-0.3	12.0	-1.2%	.	17.8%	-3.1	-3.6
Cc1cc(C(=O)NCc2cccs2)n(-c2ccccc2)n1	1.0	.	1.5%	-0.8%	18.6%	-2.6	-18.7
CC1(C)Cc2nc3oc4c(SCC(N)=O)ncnc4c3cc2CO1	2.4	-14.3	2.3%	.	14.8%	-5.9	-17.6
Cc1c(Cl)cccc1N(CC(=O)O)S(C)(=O)=O	-0.7	2.0	-1.4%	-1.0%	2.2%	5.6	-20.6
O=C(O)C1CC=CC2CCN(C3CCCCC3)C(=O)C21 (configuration not stated)	0.2	.	.	.	40.0%[activator]	1.0	1.4
CN(C)CCCNCCCNC(=O)/C(=N\O)c1ccccc1	-0.1	2.5	1.3%	-0.8%	10.7%	-0.8	-25.5
COc1cc(OC)cc(C(=O)Nn2cc(C(=O)N3CCN(C)CC3)c3ccccc3c2=O)c1	-0.2	5.4	0.6%	-6.2%	15.1%	4.7	2.5
COc1cccc(CNC(=O)CSC2=Nc3ccccc3C3=NC(C)C(=O)N23)c1OC (configuration not stated)	-0.1	.	3.6%	-4.5%	.	.	-11.5
O=C(C[C@@H]1C/C=C\CC[C@H](Cc2ccc(F)cc2)C(=O)OC[C@@H](Cc2ccccc2)NC1=O)NCCO	3.0	.	0.5%	-0.1%	.	.	26.3

(further entries)
SMILES	TRPML1 ag	TRPV1 PAM	PINK1 modulator	ClpP mod	Sfp inh	Menin-MLL FL inh	TRPML1 inh
COc1ccc(CN2C(=O)C(CC(=O)NCCN3CCOCC3)CC(C(=O)N(C)C)=C2C)cc1 (configuration not stated)	-0.4	.	0.2%	-1.0%	.	.	?
O=C(Nc1ccccc1C(=O)N1CCCC1)C1COc2ccccc2O1 (configuration not stated)	0.7	-1.5	3.0%	.	13.4%	3.9	-2.7
CCC(CC)C(=O)N1c2ccc(F)cc2CCC1C (configuration not stated)	-0.1	-3.2	1.0%	-2.1%	10.1%	-1.5	10.6
CN1C=CC(C(C(N)=O)c2ccccc2)c2ccccc21 (configuration not stated)	-0.4	.	0.2%	0.7%	.	.	-10.6
O=C(Nc1nc2ccccc2s1)c1cc(-c2ccco2)nc2ccccc12	1.2	6.1	4.5%	17.8µM*	44.7µM*	6.2	33.6
Cc1cc(-c2nnc(SCC(=O)Nc3ccc(C)c(C)c3)n2N)n[nH]1	-1.1	8.3	1.3%	0.5%	-12.5%	.	-5.5
O=C(Cc1ccc(F)cc1)NO	-0.5	.	0.3%	-1.6%	.	.	.
COc1ccc(OCCCC(=O)NC(C)c2ccccc2)cc1 (configuration not stated)	-1.0	-24.0	-1.7%	1.2%	-1.7%	1.0	19.0
Cc1nc2nc(C)c(CCC(=O)N3CCN(c4ccccn4)CC3)c(C)n2n1	0.3	24.2	-0.4%[38.3 µM]	?	13.6%	1.9	11.0
COc1ccc(-c2cnnc(N/N=C/c3c(C)nn(-c4ccccc4)c3Cl)n2)cc1	1.6	14.0	-0.8%	-0.9%	-4.6%	-8.9	-11.0
COc1ccc(C2=NOC(C(=O)N3CCN(c4ccccc4OC)CC3)C2)cc1 (configuration not stated)	-0.3	-22.3	0.8%	1.2%	-15.1%	-1.1	-0.9
Cc1ccc(S(=O)(=O)N2CCC(C(=O)OCC(=O)N3CC(=O)Nc4ccccc43)CC2)cc1	-0.9	27.3	7.6%[38.3 µM]	0.6%	-3.3%	7.6	5.1
O=C(C[C@@H]1C/C=C\CC[C@@H](Cc2ccc(F)cc2)C(=O)OC[C@@H](Cc2ccccc2)NC1=O)NCCO	0.0	.	0.2%	3.0%	.	.	-8.4
